HNF4A DNA FP = change in binding of human HNF4 alpha to DNA | 360,000 compounds, 0.3% hits | AID 1224865 | activity change, % at 10 µM | HNF4a-FITC DNA binding, fluorescence polarization, 1 h | P41235; in the data active = activity change above about 30%, passing the limit was not always enough;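 note: controls were the assay level and a saturating level of protein; the project sought stronger binding though the title names inhibitors; some compounds called inactive have numbers as strong as hits; positive values seem to mean higher polarization but the record does not say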
Target sequence (P41235 whole entry, looked up): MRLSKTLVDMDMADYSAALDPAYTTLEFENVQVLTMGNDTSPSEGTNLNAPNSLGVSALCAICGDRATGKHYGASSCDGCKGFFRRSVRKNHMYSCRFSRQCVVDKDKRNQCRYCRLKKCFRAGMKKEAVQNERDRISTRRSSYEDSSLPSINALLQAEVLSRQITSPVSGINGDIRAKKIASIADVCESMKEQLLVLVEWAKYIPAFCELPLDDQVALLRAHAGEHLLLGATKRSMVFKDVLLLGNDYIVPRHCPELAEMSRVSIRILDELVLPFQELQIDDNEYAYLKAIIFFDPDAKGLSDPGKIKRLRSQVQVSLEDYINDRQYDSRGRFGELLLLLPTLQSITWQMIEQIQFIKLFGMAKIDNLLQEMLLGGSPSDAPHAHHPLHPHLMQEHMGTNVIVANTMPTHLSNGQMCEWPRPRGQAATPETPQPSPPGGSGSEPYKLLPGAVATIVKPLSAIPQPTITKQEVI
FGF22 binding = shifts melting point of recombinant human FGF22. calls only at 9.99 µM. AID 651658. recombinant FGF22 thermal shift, SYPRO orange fluorescence; percent of sucrose octasulfate shift, DMSO zero. 340,000 compounds, 1.5% hits. Q9HCT0;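 active = melting point raised past a set limit in the mean and every replicate; three in four hits are not shown here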
Target sequence (Q9HCT0 whole entry, looked up): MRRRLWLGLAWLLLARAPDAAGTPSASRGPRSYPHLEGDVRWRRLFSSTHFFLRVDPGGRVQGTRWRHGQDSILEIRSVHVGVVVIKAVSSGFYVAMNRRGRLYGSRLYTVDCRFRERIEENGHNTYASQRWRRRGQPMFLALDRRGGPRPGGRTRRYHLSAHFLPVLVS
An asterisk follows results filed as active; i = inactive. These rows are one share of the data, so the mix of outcomes need not match the whole.

SMILES | HNF4A DNA FP | FGF22 binding
CC(C)C1C(=O)N(Cc2cn(CCC3OCCO3)nn2)CCS(=O)(=O)N1Cc1ccc(-c2ccc(Cl)c(Cl)c2)cc1 (stereo not drawn) | 0.5 | i
COc1ccc(CN2C[C@H]3CON(C)[C@H]3C[C@H]2c2ccc(-c3cccc(F)c3)cc2)cc1 | 0.3 | i
O=C(NC1CCCC1)C1c2ccccc2OCC(=O)N1CCc1c[nH]c2ccccc12 (stereo not drawn) | 1.5 | i
CCN(CCO)CC1CCCC2CCCCC21 (stereo not drawn) | 6.0 | i
CCCS(=O)(=O)NC(=O)C1(C)CCCN(C(=O)c2c(F)cccc2F)C1 (stereo not drawn) | -1.4 | i
COc1ccccc1N1CC(C(=O)OCC(=O)c2c(N)n(C)c(=O)n(C)c2=O)CC1=O (stereo not drawn) | -2.3 | i
COC(=O)[C@@]12C[C@@H](CC(=O)N3CCSCC3)C(=O)N(Cc3ccccc3)C1=CCC(C)(C)C2 | 2.6 | i
CC(C)(C)NC(=O)C1c2ccccc2OCC(=O)N1Cc1ccc2c(c1)OCO2 (stereo not drawn) | -1.0 | i
CCC(CC)C(=O)N(C)c1c(C)nc2c(OCCOc3ccc(F)cc3)cccn12 | 1.9 | i
O=C(Nc1ccc(F)c(Cl)c1)Nc1nnc([C@@H]2O[C@H](CO)[C@@H](O)[C@H]2O)s1 | 2.2 | i
O=C(c1[nH]c(C(F)(F)F)nc1-c1ccccc1)N1CCC(C(O)(c2ccccc2)c2ccccc2)CC1 | 5.1 | i
OC[C@@H]1CN(Cc2ccc3c(c2)OCO3)C[C@H](n2cnc3c(N4CCN(c5ccccc5)CC4)ncnc32)O1 | 0.2 | i
Cc1cccc(C(O)c2ncc(-c3ccc4ccccc4c3)[nH]2)c1C (stereo not drawn) | 3.0 | i
O=C(CCCCCN1C(=O)c2cccc([N+](=O)[O-])c2C1=O)NCCc1ccccc1 | -0.3 | i
C#CCNC(=O)C[C@@H]1C[C@@]2(C(=O)OCC)CCCC=C2N(Cc2ccccc2)C1=O | 2.8 | i
Cc1cnc(C2OCCO2)c2cccc([N+](=O)[O-])c12 | 3.3 | i
COCCNC(=O)C1(C)Cc2c(-c3cccc(C(F)(F)F)c3)ccnc2O1 (stereo not drawn) | 4.0 | i
COC(=O)[C@@]12C[C@@H](CC(=O)N3CCC(c4ccccc4)CC3)C(=O)N(Cc3cccc4ccccc34)C1=CCC(C)(C)C2 | 2.3 | i
CCOC(=O)C1CCCN(C(=O)COc2ccc(C(C)(C)C)cc2)CC1 (stereo not drawn) | 2.5 | i
CC1C(=O)N(Cc2cn(Cc3ccco3)nn2)CCS(=O)(=O)N1Cc1ccc(-c2ccccc2C(F)(F)F)cc1 (stereo not drawn) | -5.4 | i
CSc1nc(N)c(C(=O)N(c2ccccc2)c2ccccc2)s1 | 6.6 | i
CCN1C(=O)[C@@H]2[C@@H]3CN(S(=O)(=O)c4ccc(C)cc4)[C@@H](c4ccccc4Cl)[C@@H]3C(=O)C[C@@H]2C1=O | -0.1 | i
COC(=O)C[C@@H]1OC[C@H](Cc2ccccc2)N1S(=O)(=O)c1ccc(C)cc1 | -2.2 | i
O=C(NCc1ccc(F)cc1)c1[nH]c(C(F)(F)F)nc1-c1ccccc1 | -3.5 | i

Molecules listed so far that contain a nitro group on carbon:
SMILES | HNF4A DNA FP | FGF22 binding
O=C(CCCCCN1C(=O)c2cccc([N+](=O)[O-])c2C1=O)NCCc1ccccc1 | -0.3 | i
Cc1cnc(C2OCCO2)c2cccc([N+](=O)[O-])c12 | 3.3 | i

Random excerpt: 5 entries already listed, in no set order.
SMILES | HNF4A DNA FP | FGF22 binding
C#CCNC(=O)C[C@@H]1C[C@@]2(C(=O)OCC)CCCC=C2N(Cc2ccccc2)C1=O | 2.8 | i
Cc1cnc(C2OCCO2)c2cccc([N+](=O)[O-])c12 | 3.3 | i
COCCNC(=O)C1(C)Cc2c(-c3cccc(C(F)(F)F)c3)ccnc2O1 (stereo not drawn) | 4.0 | i
CCN1C(=O)[C@@H]2[C@@H]3CN(S(=O)(=O)c4ccc(C)cc4)[C@@H](c4ccccc4Cl)[C@@H]3C(=O)C[C@@H]2C1=O | -0.1 | i
O=C(NCc1ccc(F)cc1)c1[nH]c(C(F)(F)F)nc1-c1ccccc1 | -3.5 | i

(list continues)
SMILES | HNF4A DNA FP | FGF22 binding
O=S(=O)(Nc1cccc(S(=O)(=O)N2CCCC2)c1)c1ccc(Br)cc1 | -1.3 | i
C=C1C(=O)[C@]23C[C@H]1CCC2[C@@]1(C)C(C[C@@H]3O)[C@](C)(C(=O)O)CC[C@@H]1O (stereo partly drawn) | 3.0 | i
Cc1ccc(S(=O)(=O)N2CCC(=O)N([C@H](COCc3cccc(C)c3)C(C)C)CC2)cc1 | 1.2 | i
CC1(C(=O)NS(=O)(=O)c2ccc(Cl)cc2)CCN1C(=O)Cc1ccc(-c2ccccc2)cc1 (stereo not drawn) | -2.5 | i
CC1(C(=O)NS(=O)(=O)c2ccccc2)CCN1C(=O)c1ccccc1CCc1ccccc1 (stereo not drawn) | -1.2 | i
CCCCN1C(=O)C(=O)NC[C@@H]1CC1CCCCC1 | 7.1 | i
Cc1ccccc1CNC(=O)c1[nH]c(C(F)(F)F)nc1-c1ccccc1 | -1.2 | i
O=C(C[C@H]1C(=O)N(CCc2ccccc2)C[C@@H]1c1ccccc1)Nc1ccccc1 | 3.4 | i
CCCC[C@@H]1CNC(=O)C(=O)N1CC1CCCCC1 | 2.9 | i
c1ccc(COc2cccc(-c3cc4nc(NCCCn5ccnc5)ccn4n3)c2)cc1 | 1.4 | i
OC[C@@H]1CN(Cc2ccc(F)cc2)C[C@H](n2cnc3c(Nc4ccccc4)ncnc32)O1 | 0.4 | i
O=C(NCCc1c[nH]c2ccccc12)OC1CC2CC1[C@H]1CCCCN1C2=O (stereo partly drawn) | 3.8 | i
CC(=O)NC(c1ccccc1)c1nc(-c2cc(F)cc(F)c2)cs1 (stereo not drawn) | -2.1 | i
Cn1c(=O)c2cc(NC(=S)NC3CCCCC3)ccc2n1C/C=C/c1ccccc1 | 0.7 | i
O=[N+]([O-])c1cccc(COc2ccccc2CO)c1 | 2.0 | i
Cc1ccc(Nc2nc(N)nc(N)c2N=O)cc1Cl | -1.6 | i
Cc1ccc(Cc2c(-c3ccccc3)nc3c4ccccc4ccn23)cc1 | 3.0 | i
CCOC(=O)[C@]12CCCC=C1N(CCC1=CCCCC1)C(=O)[C@H](CC(=O)NCc1cccc(C(F)(F)F)c1)C2 | 6.4 | i
CC1(C(=O)O)CCCN1C(=O)c1cccc2ccccc12 (stereo not drawn) | -0.1 | i
CC1=C(C(=O)N2CCCCCC2)CC(CC(=O)NCC2CCCCC2)C(=O)N1Cc1ccc(F)cc1 (stereo not drawn) | 6.4 | i
CC1CCC2(CC1)NC(=O)N(CC(=O)Nc1cccc(S(=O)(=O)N(C)c3ccccc3)c1)C2=O (stereo not drawn) | 2.6 | i
CCOC(=O)c1c(CC(C)C)csc1NC(=O)COC(=O)c1cnc(C)cn1 | 0.9 | i
CCN(Cc1ccncc1)C(=S)Nc1ccccc1C | 1.0 | i
COc1cc(C)ccc1S(=O)(=O)NC(=O)C1(C)CCN1C(=O)Cc1ccc(Cl)cc1Cl (stereo not drawn) | 0.1 | i
CC(C)=CCOc1ccc2c(C)c(CCC(=O)N3C[C@H]4C[C@@H](C3)c3cccc(=O)n3C4)c(=O)oc2c1C | 3.0 | i
CCN(CC)C(=O)C1=C(C)N(Cc2ccc(C(C)(C)C)cc2)C(=O)C(CC(=O)NC2CCCC2)C1 (stereo not drawn) | -1.0 | i
CCCn1c(N)c(N(CCOC)C(=O)COC(=O)COc2c(C)cc(C)cc2C)c(=O)[nH]c1=O | 4.6 | i
COc1ccc(CN2CCC2(C)C(=O)NCCNC(C)=O)c2ccccc12 (stereo not drawn) | -2.3 | i
CC1(C(=O)NS(=O)(=O)c2cccc(Cl)c2)CCN1C(=O)c1ccccc1 (stereo not drawn) | 2.0 | i
COc1ccc(Cl)cc1NC(=O)NNC(=O)C(=O)Nc1ccc(F)cc1 | 5.7 | i
Cc1ccc(NC(=O)CSc2nnc(NC3CC3)s2)cc1S(=O)(=O)N1CCOCC1 | -4.1 | i
COc1cc(C(=O)N2CCN(C3=NS(=O)(=O)c4ccccc43)CC2)cc(OC)c1OC | -0.3 | i
CC(C)Cc1nnc(NC(=O)C2CCCN(C(=O)c3ccc(Cl)cc3)C2)s1 (stereo not drawn) | -5.8 | i
CCCCN1C(=O)C(CC(=O)NCCc2ccccn2)CC(C(=O)N2CCCCCC2)=C1C (stereo not drawn) | 2.0 | i
O=C(NC1CCCC1)C1C(c2ccccc2)=Nc2ccccc2N1C(=O)c1cc(Cl)cc(Cl)c1 (stereo not drawn) | -0.5 | i
CCCCNC(=O)C1C(c2ccccc2)=Nc2ccccc2N1C(=O)c1ccc2c(c1)OCO2 (stereo not drawn) | 1.4 | i
CNC(=O)C1(C)CCN1C(=O)Cc1ccc(C(C)C)cc1 (stereo not drawn) | 2.2 | i
O=C(c1ccco1)N1CCN(C(=O)c2[nH]c(C(F)(F)F)nc2-c2ccccc2)CC1 | 0.3 | i
CCCCCCCCN1C(=O)[C@H](CC(=O)NCc2ccccc2)C[C@@]2(C(=O)OC)CC(C)(C)CC=C12 | -6.2 | i
C=C1C(=O)C23C(O)C1CCC2C12COC3(O)C(O)C1C(C)(C)CCC2O (stereo not drawn) | 0.9 | i
COCCN1C(=O)CN(S(C)(=O)=O)CC1(C)C(=O)Nc1ccc2c(c1)OCCO2 (stereo not drawn) | 3.7 | i
CNc1cncc(-c2cccc(C(=O)N3CCOCC3)c2)n1 | -4.7 | i
CCCCN(C)c1c(C)nc2ccc(C(=O)Nc3ccc(OC)c(OC)c3)cn12 | 0.3 | i
CC(NC(=O)c1ccc(Cl)c(S(=O)(=O)NC2CC2)c1)c1ccco1 (stereo not drawn) | 0.1 | i
O[C@@H]1C[C@H](c2ccc(Cl)cc2)N(Cc2cccs2)C[C@H]1n1cc(C2CC2)nn1 | -2.2 | i
COCCn1c(SCC(=O)Nc2ccc(F)cc2)nc2c(c1=O)SCC2 | 0.9 | i
Brc1cccc(-c2nc3c4ccccc4ccn3c2Cc2ccsc2)c1 | 3.3 | i
O=C1[C@H]2[C@@H](c3ccccc3)N[C@]3(CCCN(Cc4ccccc4)C3=O)[C@H]2C(=O)N1Cc1ccccc1 | 1.1 | i
CC(C)(C)c1ccc(CC(=O)N2CCC2(C)C(=O)NCc2ccc3c(c2)OCO3)cc1 (stereo not drawn) | 1.3 | i
Cc1ccc(Cc2c(-c3cccc(Cl)c3)nc3ccc(Cl)cn23)cc1 | 11.0 | i
O=C(NCc1ccncc1)c1csc([C@@H]2C[C@H](O)[C@@H](CO)O2)n1 | 0.0 | i
COC(=O)c1ccc2nc(-c3cccc(Br)c3)c(CC3CCCCC3)n2c1 | 11.3 | i
COc1ccc(-c2ccc(CN3C(CC(C)C)C(=O)N(Cc4cn(Cc5ccco5)nn4)CCS3(=O)=O)cc2)cc1 (stereo not drawn) | 11.3 | i
COc1ccc(C(=O)N/C(=C\c2ccc(Cl)cc2)C(=O)NCc2ccncc2)cc1 | -5.1 | i
OC(c1ccc(F)c(F)c1)c1nc(-c2ccc(F)c(Cl)c2)cs1 (stereo not drawn) | 3.6 | i
Cc1ccc(S(=O)(=O)N2C[C@H]3[C@H]4C(=O)N(c5ccccc5)C(=O)[C@H]4CC(=O)[C@H]3[C@@H]2c2ccc(Cl)cc2)cc1 | -0.5 | i
CCOC(=O)c1csc(NC(=O)CCS(=O)(=O)c2ccc(Cl)cc2)n1 | -3.1 | i
COc1ccc(CN2C(=O)C(CC(=O)NCCCCc3ccccc3)CC(C(=O)N3CCCCCC3)=C2C)cc1 (stereo not drawn) | 3.3 | i
CC1=C(C(=O)N2CCCCCC2)CC(CC(=O)NCCN2CCOCC2)C(=O)N1Cc1ccc(F)cc1 (stereo not drawn) | 5.6 | i
COc1cccc(COC(=O)CSCC(=O)Nc2ccc(C)cc2)c1OC | -0.1 | i
CN(C)CCNC(=O)C(=O)NCC1OCCN1S(=O)(=O)c1ccc(F)cc1 (stereo not drawn) | 1.8 | i
CC1(Cc2ccc(OC(F)(F)F)cc2)C(=O)Nc2ccc(S(=O)(=O)NC3CCCCC3)cc21 (stereo not drawn) | -3.6 | i
O=C(NC1CC1)c1ccc2nc([C@@H]3O[C@H](CO)[C@H](O)[C@H](O)[C@H]3O)[nH]c2c1 | -0.1 | i

Not a retest: 4 of the compounds above.
SMILES | HNF4A DNA FP | FGF22 binding
CC(C)(C)c1ccc(CC(=O)N2CCC2(C)C(=O)NCc2ccc3c(c2)OCO3)cc1 (stereo not drawn) | 1.3 | i
Cc1ccc(Cc2c(-c3cccc(Cl)c3)nc3ccc(Cl)cn23)cc1 | 11.0 | i
O=C(NCc1ccncc1)c1csc([C@@H]2C[C@H](O)[C@@H](CO)O2)n1 | 0.0 | i
COC(=O)c1ccc2nc(-c3cccc(Br)c3)c(CC3CCCCC3)n2c1 | 11.3 | i

High-throughput results (PubChem)
